Screens (PubChem BioAssay)
VDR inhibitor: Inhibitors of the vitamin D receptor (VDR): qHTS | VDR-SRC2-3 peptide fluorescence polarization, 2 h | Potency, µM, without a hit: max response, negative = inhibition, actives largely listed as inhibitors | 400,000 tested, 0.93% active; active = well fitted inhibition curve with a large enough effect; inconclusive = small, poorly fitted or top-dose-only effect, or another doubt; inactive = no such curve, though single readings can be large or run the other way; note: series mostly up to about 120 µM
Target sequence (P11473 whole entry, looked up): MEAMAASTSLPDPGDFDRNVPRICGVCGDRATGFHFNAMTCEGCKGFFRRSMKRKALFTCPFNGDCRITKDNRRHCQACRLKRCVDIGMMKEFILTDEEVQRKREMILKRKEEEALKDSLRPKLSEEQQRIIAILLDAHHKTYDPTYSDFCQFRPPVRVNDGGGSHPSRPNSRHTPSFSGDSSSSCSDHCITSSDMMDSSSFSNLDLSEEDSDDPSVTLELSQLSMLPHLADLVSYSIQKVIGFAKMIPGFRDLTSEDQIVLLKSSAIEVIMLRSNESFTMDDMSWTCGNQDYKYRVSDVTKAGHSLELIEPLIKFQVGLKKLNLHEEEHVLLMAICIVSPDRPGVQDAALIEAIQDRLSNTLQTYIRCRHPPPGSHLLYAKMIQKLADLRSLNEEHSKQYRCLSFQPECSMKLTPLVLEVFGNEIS
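Inhibition of the VDR/SRC2-3 peptide interaction is quantified by fluorescence polarization. Compounds (23 nl, pintool) incubate with the reagents for 2 hours at ambient room temperature.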
Numbers without * were called inactive; ? = inconclusive; & = joins results of further samples; [ ] = dose if it differs, or a comment. % is set by controls: 0 for no effect and ±100 for the full control effect; potency is the fitted concentration of half-maximal effect.

SMILES | VDR inhibitor
CCOc1ccccc1NC(=O)CC1C(=O)NCCN1C(=O)c1ccc(F)cc1 (stereo not drawn) | 3%
Cc1ccc(OCC(=O)NCc2ccccn2)c(Br)c1 | 2%
NC(=O)CSc1nc2ccc(NC(=O)COc3ccccc3)cc2s1 | 4%
COc1ccc(/C=C(\C#N)C(=O)Nc2cccc3ncccc23)cc1OC | 9%
CCc1ccc2c(c1)C(c1ccc([N+](=O)[O-])cc1)=NNC(c1ccc(C)cc1)=N2 | 10%
O=C(COC(=O)c1ccccc1NCCO)NCc1cccs1 | -12%
C=CCn1c(SCc2nc(N)nc(N3CCCCC3)n2)nnc1-c1ccco1 | -6%
CCc1ccc(-n2nc(C)c3c(C)cc(=O)n(CC(=O)Nc4ccc(C)c(F)c4)c32)cc1 | 17%
COc1cc(S(=O)(=O)N2CCN(c3ccccc3F)CC2)c(OC)cc1Cl | -4%
Cc1ccc(Nc2c(-c3ccncc3)nc3ccc(C)cn23)cc1 | -13%
CC(C)Oc1ccc(CN2CCC(n3nccc3NC(=O)CCc3ccccc3)CC2)cc1 | -13%
Cc1cccc(N2CCN(C(=O)CN3C(=O)C4CC=CCC4C3=O)CC2)c1C (stereo not drawn) | 7%
Cc1ccc2nc(N(Cc3cccnc3)C(=O)CCOc3ccccc3)sc2c1 | 15%
Cc1snc(SCc2cccc(Cl)c2)c1C#N | -19%
Clc1ccc(/C=N/Nc2ccccn2)cc1 | -4%
Cn1cc(/C=C(\NC(=O)c2ccccc2Cl)C(=O)NCCCN2CCOCC2)c2ccccc21 | 6%
Cc1cc(C(=O)CSc2nnc(-c3ccco3)o2)c(C)n1C | 35%[activator]
CCOC(=O)c1cccc(NC(=O)Cn2cnc3nc4c(cc3c2=O)CCCC4)c1 | 13%
N#CC1=C(N)NC(SCc2ccc(Br)cc2)=C(C#N)C12CCCCC2 | -18%
Cc1noc(C)c1C(=O)N1CCC2(CCCN(Cc3ccccc3)C2)CC1 | -14%
CCC(=O)Oc1ccc(C/C(=N\O)c2ccc(O)cc2O)o1 | 9%
COc1cccc(N2CCN(C(=O)c3cc4c(=O)n(Cc5ccccc5)ccc4nc3C)CC2)c1 | 13%&-3%
COc1ccc(OCc2nnc(SCC(=O)Nc3cccc(Cl)c3)o2)cc1 | 10%
O=C(C1CCC(CNS(=O)(=O)c2ccc(Br)s2)CC1)N1CCN(c2ccc(F)cc2)CC1 (stereo not drawn) | 10%
COc1cccc(NC(=O)COC(=O)c2c(NC(C)=O)sc(C)c2C)c1 | 28%

Reformatted: four of the compounds above
Cn1cc(/C=C(\NC(=O)c2ccccc2Cl)C(=O)NCCCN2CCOCC2)c2ccccc21
  VDR inhibitor = 6%

Cc1cc(C(=O)CSc2nnc(-c3ccco3)o2)c(C)n1C
  VDR inhibitor = 35%[activator]

CCOC(=O)c1cccc(NC(=O)Cn2cnc3nc4c(cc3c2=O)CCCC4)c1
  VDR inhibitor = 13%

N#CC1=C(N)NC(SCc2ccc(Br)cc2)=C(C#N)C12CCCCC2
  VDR inhibitor = -18%

The listing picks up; the 3 compounds before the break are reprinted first.
SMILES | VDR inhibitor
COc1ccc(OCc2nnc(SCC(=O)Nc3cccc(Cl)c3)o2)cc1 | 10%
O=C(C1CCC(CNS(=O)(=O)c2ccc(Br)s2)CC1)N1CCN(c2ccc(F)cc2)CC1 (stereo not drawn) | 10%
COc1cccc(NC(=O)COC(=O)c2c(NC(C)=O)sc(C)c2C)c1 | 28%
Brc1ccc(-c2cnco2)cc1 | -26%
O=C(c1cccc(NS(=O)(=O)c2ccc(F)c(F)c2)c1)N1CCCCC1 | ?
Cc1ncc(CN2CCCC(C(=O)Nc3ccc(-c4ccco4)cc3)C2)n1C (stereo not drawn) | 3%
O=C1c2ccccc2C(Nc2ccc3c(c2)OCCO3)N1Cc1ccco1 (stereo not drawn) | -18%
CC(Sc1nnnn1C)C(=O)Nc1ccc(N2CCOCC2)cc1 (stereo not drawn) | -3%
COC(=O)c1c(C)[nH]c(-c2csc(N)n2)c1C | 34%[activator]
Cn1cccc1/C=N/n1c(-c2ccc(Cl)cc2Cl)n[nH]c1=S | -5%
Cc1ccc(CNC(=O)CSCc2ccccc2F)cc1 | -4%
CC(C)CCOc1ccc(C(=O)NN2C(=O)NC3(CCCCC3)C2=O)cc1 | -20%
CC1=C(/C=C/C(C)=N\NC(=O)c2ccncc2)C(C)(C)CCC1 | 9%
CCOC(=O)C1=C(C)NC(C)=C(C(=O)OCC)C1c1sccc1C | -12%
Cc1nc2ccc(NS(=O)(=O)c3ccccc3F)cc2s1 | -21%
COC(=O)Nc1ccc(S(=O)(=O)N2CCCC(C(=O)NC3CCS(=O)(=O)C3)C2)cc1 (stereo not drawn) | 2%
O=C(NCCCN1CCCC1=O)Nc1ccccc1F | -2%
O=C(NCCCc1ccccc1)c1ccccc1 | -11%
Cc1ccc(OCCNC(=O)c2ccc(COc3ccccc3)o2)cc1 | 10%
O=C(CN1CCCCC1)N1N=C(c2cccs2)CC1c1cccs1 (stereo not drawn) | 10%
CC1(c2ccc(OC(F)F)cc2)NC(=O)N(CC(=O)Nc2ccc(N3CCCCC3)cc2)C1=O (stereo not drawn) | -7%
Cc1cccc(NC(=O)CCNC(=O)c2ccco2)c1 | 4%
COc1ccc(C(=O)Nc2nnc(S(=O)(=O)N(CC(C)C)c3ccccc3)s2)cc1 | 3%
CCCOc1cc(CN2CCCCC2)cc(C(C)=O)c1 | 2%
Clc1ccc(-n2cccc2CN2CCc3c([nH]c4ccccc34)C2c2ccccn2)nc1 (stereo not drawn) | -5%
COc1ccc(OC)c(S(=O)(=O)N2CCC(C(=O)NC3CC3)CC2)c1 | 2%
Cc1cc(C)n(-c2ccc(C(=O)N3CCN(S(=O)(=O)c4ccc(C(C)C)cc4)CC3)cc2)n1 | -9%
O=C(c1ccc(F)cc1)N1CCN(c2cc(N3CCCCC3)c(F)cc2[N+](=O)[O-])CC1 | -5%

Continued.
SMILES | VDR inhibitor
COc1ccccc1NS(=O)(=O)c1cc(C(=O)NCC(C)(C)N2CCOCC2)ccc1C | -2%
CCc1ccc(N(C(=O)c2csnn2)C(C(=O)NC(C)(C)CC)c2cccnc2)cc1 (stereo not drawn) | -12%
Cc1cc2nc(-c3ccc(=O)[nH]c3)n(C)c2cc1C | 1%
Cc1ccc(NS(=O)(=O)c2ccccc2)c(NS(=O)(=O)c2ccccc2)c1 | 3%
S=C(Nc1cccc(Cl)c1)Nc1ccccc1Oc1ccccc1 | 2%
CC(=O)Nc1nc(C=C(Cl)Cl)cs1 | -28%
CCOc1ccccc1C(=O)NCC(=O)NNC(=O)c1cccs1 | -2%
Cc1nn(-c2ncc(C(F)(F)F)cc2Cl)c(=O)n1-c1cccc(F)c1 | -16%
S=C1N[C@H]2CCCC[C@@H]2N1 | 6%
Cc1cc(C)n(-c2nnc(N3CCN(c4ccccc4)CC3)nn2)n1 | 2%
COC(=O)N1C(=O)[C@](c2ccccc2)(C2CCCCC2)N1C(=O)OC | ?
CN(CC(=O)NCCc1ccc(Cl)cc1)S(=O)(=O)c1cccs1 | -16%
Nc1ncnc2c1ncn2[C@@H]1O[C@H](CO)C[C@H]1O | 14%
O=CN1CCN(C(C(=O)NC2CCCC2)c2cc3c(cc2[N+](=O)[O-])OCO3)CC1 (stereo not drawn) | 7%
CCCOC1CCCN(C(=O)c2ccc(OC3CCN(C(=O)CCOC)CC3)cc2)C1 (stereo not drawn) | -12%
COc1ccc(Cl)cc1NS(=O)(=O)c1cccc(C(=O)NC2CC2)c1 | -9%
COc1ccc(-c2csc(N(CC3CCCO3)C(=O)c3ccco3)n2)cc1 (stereo not drawn) | 6%
O=S(=O)(c1ccc(N2CCN(S(=O)(=O)c3ccccc3)CC2)nc1)N1CCCC1 | 4%
CC(C)(C)c1nnc2sc(SCC(=O)NCc3ccco3)nn2c1=O | -13%
COc1ccc(C(=O)NCCSc2ccccc2C)cc1 | 6%
O=C(CN1CCN(C(=O)C2COc3ccccc3O2)CC1)Nc1ccc(F)cc1 (stereo not drawn) | -1%
Cc1cccc(NC(=O)N2CCN(Cc3ccc4c(c3)OCO4)CC2)c1C | -2%
CCOC(=O)C1CCCN(C(=O)C2COc3ccccc3O2)C1 (stereo not drawn) | -8%
O=C(NCc1ccccc1)C1=C[C@H](c2csc3ccccc23)C[C@H](OCCCCO)O1 | 2%
COCc1c(C(=O)N(C)Cc2ccccc2N2CCCC2)oc2ccccc12 | -19%

Following part:
SMILES | VDR inhibitor
COc1ccc(Cn2c(=O)c3oc4ccccc4c3n(Cc3ccccc3)c2=O)cc1 | 17%
CCOC(=O)c1ccc(N=c2scc(C)n2CC)cc1 | -15%
COc1ccc(C(=O)Nc2ccnn2C2CCN(C(=O)CCC(F)(F)F)CC2)cc1 | -14%
COc1ccc(CCC(=O)Nc2cccc(S(=O)(=O)N3CCCCCC3)c2)cc1OC | ?
O=C(COC(=O)c1cc(S(=O)(=O)N2CCOCC2)ccc1O)Nc1cc(S(=O)(=O)N2CCCC2)ccc1Cl | 6%
Cc1ccc(N(CC(=O)NC(C)c2ccccc2)S(=O)(=O)c2cccs2)cc1 (stereo not drawn) | 1%
COc1ccc(Cn2cnc3c(N)c(C)c(C)cc32)cc1 | -25%
O=C(Nc1cccc(Cl)c1)C1CCCN(c2nn3cc(-c4ccc(F)cc4)nc3s2)C1 (stereo not drawn) | 16%
Cc1cc(SCC(=O)Nc2ccc(Cl)cc2)nc2ccccc12 | ?
CC1CN(CC(=O)Nc2ccc(S(N)(=O)=O)cc2)CC(C)O1 (stereo not drawn) | -27%
O=C(c1ccc2c(c1)N(Cc1cccc(Cl)c1)C(=O)c1ccccc1S2(=O)=O)N1CCN(c2cccc(C(F)(F)F)c2)CC1 | 17%
Cc1ccccc1OCC(=O)NCC(c1ccc(Cl)cc1)N1CCOCC1 (stereo not drawn) | 12%
Cc1ccc(-c2c(NC(=O)c3ccco3)oc3ccccc3c2=O)cc1 | -7%
COc1cc(C)c(C(=O)Oc2cc(C)c(C(=O)O)c(O)c2C)c(O)c1C | 33%[activator]
Cc1cc(Cl)ccc1NNC(=O)CCc1ccccc1 | -18%
CCOC(=O)C1=C(C)OC(N)=C(C(=O)OCC)C1c1cccnc1 (stereo not drawn) | -17%
O=C(NCCCNC(=O)c1ccccn1)c1ccc(Br)cc1 | -3%
O=C(Cc1csc(Nc2nc(=S)[nH]c3ccccc23)n1)NCc1cccc(Cl)c1 | 1%
O=C(COc1ccc2c3c(c(=O)oc2c1)CCC3)N1CCCCC1 | -3%
Cc1cccc2nc(CSCc3ccco3)cn12 | -2%
O=S(=O)(NCc1ccc(F)cc1)c1cccc(S(=O)(=O)N2CCOCC2)c1 | 9%
Cc1ccc(S(=O)(=O)/N=C(/NNC(=O)c2cccc(Cl)c2)c2ccccc2)cc1 | -14%
Cc1ccc(Cl)cc1NC(=O)CN(C)S(=O)(=O)c1ccc2c(c1)n(C)c(=O)c(=O)n2C | -25%
COc1ccc(C(C)(C)C)cc1NC(=O)CCCN1C(=O)NC(C)(C)C1=O | -7%
CC(NC(=O)c1ccc(Br)cc1)c1ccc2c(c1)CCCC2 (stereo not drawn) | -1%

In the list so far, three contain a nitro group on carbon.
SMILES | VDR inhibitor
CCc1ccc2c(c1)C(c1ccc([N+](=O)[O-])cc1)=NNC(c1ccc(C)cc1)=N2 | 10%
O=C(c1ccc(F)cc1)N1CCN(c2cc(N3CCCCC3)c(F)cc2[N+](=O)[O-])CC1 | -5%
O=CN1CCN(C(C(=O)NC2CCCC2)c2cc3c(cc2[N+](=O)[O-])OCO3)CC1 (stereo not drawn) | 7%

Additional results.
SMILES | VDR inhibitor
CCOC(=O)c1ccc2c(c1)N(Cc1cc(C)ccc1C)C(=O)c1ccccc1S2(=O)=O | 4%
COc1cccc(CNC(=O)c2ccccc2SCC(=O)N2CCCC2)c1 | -8%
C1=CC2c3ccccc3NC(c3ccncc3)C2C1 (stereo not drawn) | ?
CCOC(=O)c1cnc(SCC(=O)OC)nc1N | 1%
CCc1ccc(NC(=O)Cn2c(=O)c3cccn3c3ccccc32)cc1 | -16%&-7%
CN(CCCCCCN(C)Cc1ccccc1O)Cc1ccccc1O | -4%
COc1ccccc1CC(=O)N1CCN(c2ccccc2F)CC1 | -2%
CC[C@H](C)[C@H](NC(=O)[C@H](Cc1ccc(O)cc1)NC(=O)[C@@H](N)C(C)C)C(=O)N[C@@H](Cc1cnc[nH]1)C(=O)N1CCC[C@H]1C(=O)N[C@@H](Cc1ccccc1)C(=O)O | -9%
Nn1cc(-c2ccccc2)nc1SCC(=O)NCC1CCCO1 (stereo not drawn) | -2%
CCC(=O)N1CCN(c2cc(N3CCN(C)CC3)c(F)cc2[N+](=O)[O-])CC1 | -24%
CCCCSc1n[nH]c(=S)c2nc[nH]c12 | ?
Cc1ccc(C2/C(=C(\O)c3ccc4c(c3)OCCO4)C(=O)C(=O)N2Cc2cccnc2)cc1 (stereo not drawn) | -12%
COc1cccc(CN(CC(=O)NCc2ccccc2)S(=O)(=O)CCl)c1 | -5%
CCc1ccccc1Nc1cc(C(=O)NC2CCC(C)CC2)c2ccccc2n1 (stereo not drawn) | -6%
Cc1ccc(-c2noc(CNC(=O)c3ccc4c(c3)OCO4)n2)cc1 | -7%
CCC(C)n1c(SCC(=O)NCc2ccco2)nnc1-c1cccc(S(=O)(=O)N2CCOCC2)c1 (stereo not drawn) | 7%
O=C(COc1ccc(S(=O)(=O)N2CCCCC2)cc1)Nc1ccccc1F | 2%
O=C(NCc1ccco1)C1CC(c2cc(C(F)(F)F)cc(C(F)(F)F)c2)=NO1 (stereo not drawn) | 2%

These rows are one share of the data; rates above refer to the full screens.
